RN4220 kill = growth inhibition of S. aureus RN4220, primary screen, OD600 | 16 h | inhibition, % (test concentration not listed) | 0.33% of 330,000 active | AID 1259311, 2017;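 active = z-score of -3 or lower and OD600 up to 0.18 on both plates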;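 note: plate controls were untreated cells for no effect and reference antibiotic for full effect; stock transfer was 100 nL into about 80 µL; one replicate is shown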
Autofluor counter = flagged as autofluorescent in microsphere protease counterscreen. 3.1% of 360,000 active. fluorescence intensity (test concentration not listed). compound autofluorescence counterscreen, microsphere flow cytometry; hits give high values. AID 624483;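 active = at least 3 SD above the mean of all compounds, about 16000 in these data; inconclusive = too few beads counted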;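 note: 100 nL of 1 mM stock went into each well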
BJeLR viability = MLPCN primary cell-based screen for lethality selective to Ras in HRASV12 cells; inhibition, % (no concentration beside the values); 0.17% of 300,000 active; BJeLR (HRASV12) viability, CellTiter-Glo ATP luminescence, 48 h; reference of the scale not given here;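 active = replicate mean above 50%; inconclusive = above 50% but judged a plate artefact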;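 note: 50 nL library stock added to about 25 µL; numbers are from one replicate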
Mtb hypoxia rep = PubChem AID 1159583. fluorescence inhibition, % (concentration not given with the values). M. tuberculosis hypoxia-regulated fluorescent reporter, fluorescence. 0.1% of 300,000 active;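 active = 35 to 45% if threefold the growth effect, above 45% if 1.5-fold the growth effect; inactive = the rest, general growth blockers included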;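 note: wells of about 50 µL received 100 nL stock; 0% = vehicle wells and 100% = reference inhibitor wells; whole bacteria with a GFP reporter of the hypoxia response; strong numbers were not always called active; many hits fall short of the cut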
PrP 5UTR inh = inhibition of PrP 5' UTR reporter expression; 0.35% of 340,000 active; cell-based PrP 5' UTR mRNA reporter, plate reader; inhibition, % (no concentration beside the values); AID 488862, 2010;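 active = every replicate at 50% or more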;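 note: 0 = median of the neutral control wells; tested in H4 reporter cells; numbers are from one replicate; inactives centre near -14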
Sa ugtP lethal = growth inhibition of ugtP-null S. aureus, primary screen, RN4220 ugtP deletion, OD600. growth inhibition, % (test concentration not listed). AID 1259309, 2017. 0.54% of 330,000 active. 16 h; some inactives read as strong as hits;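 active = z-score under -3 and OD600 up to 0.15 on both plates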;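 note: plate controls were untreated wells for no effect and antibiotic for full effect; wells of about 80 µL received 100 nL stock; the first replicate is given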
Mtb hypoxia rep growth = second read-out of Mtb hypoxia rep, no call of its own (marks repeat the call); growth inhibition, %; measured here: M. tuberculosis growth (absorbance);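 0% = vehicle and 100% = reference antibiotic; read after six days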
An asterisk follows results filed as active; ? = inconclusive; · = not tested or not shown.

SMILES | RN4220 kill | Autofluor counter | BJeLR viability | Mtb hypoxia rep | Mtb hypoxia rep growth | PrP 5UTR inh | Sa ugtP lethal
CCCCC1CNCCN1CCc1cc(C(F)(F)F)cc(C(F)(F)F)c1 (stereo not given) | 1.4 | · | · | 12 | 14 | · | 5
CCOC(=O)c1ccc(Nc2nc(C)cc(C)n2)cc1 | 0.4 | 3939 | -2 | 9 | 5 | -17 | 5
CC1=NN(C(N)=S)C(=O)C1N=Nc1cccc([N+](=O)[O-])c1 (stereo not given) | 0.8 | 3993 | 6 | 2 | -3 | -23 | -5
O=C(Nc1nc(-c2ccccc2)ns1)c1cccs1 | -1.3 | 22042* | 18 | 1 | 1 | -27 | -5
CC(=O)N(Cc1cc2c(C)cc(C)cc2[nH]c1=O)C1CCCCC1 | 5.9 | 2433 | -4 | 11 | 3 | 0 | 1
CCOC(=O)C1=C(C)N(CCCC(=O)O)C(=O)NC1c1ccccc1Cl (stereo not given) | 6.6 | · | -5 | 6 | 10 | · | 3
COc1ccccc1NC(=O)CSc1n[nH]c(-c2cccnc2)n1 | 1.2 | 5174 | 0 | 8 | 7 | 2 | -3
O=C(NC(=O)c1ccc(Cl)cc1)Nc1cc(N2CCCCC2)ncn1 | 2.1 | 3906 | · | · | · | -22 | 3
COc1ccc(NC(=O)CSc2nnc(Cn3cnc([N+](=O)[O-])n3)n2C)cc1 | 0.0 | 1961 | -1 | 12 | 2 | -11 | 10
COCCNC(=S)NC1CC2CCC(C1)N2Cc1ccccc1 (stereo not given) | -0.4 | 4537 | -2 | 10 | -4 | -68 | -1
COc1ccc2[nH]c3c(N4CC(C)OC(C)C4)ncnc3c2c1 (stereo not given) | -0.2 | · | -4 | -4 | 9 | · | -12
O=C(Nc1ccc([N+](=O)[O-])cc1)C1COc2ccccc2O1 (stereo not given) | 2.6 | 3265 | 5 | 7 | 1 | -19 | 9
Cn1cc(CN2CCCC(C(=O)c3ccc(-c4ccccc4)c(F)c3)C2)cn1 (stereo not given) | -1.1 | 2986 | -7 | 6 | 1 | -8 | 56
CCCNC(=O)c1ccc(N2CCC3(CC2)CC(c2ccccc2)=NO3)c(N)c1 | -2.1 | 4199 | 3 | -8 | 5 | -15 | -3
Cc1ccc(S(=O)(=O)n2c(CN3CCCC(C)C3)nc3ccccc32)cc1 (stereo not given) | -0.4 | 8577 | -7 | 8 | 5 | -4 | 23
Fc1ccccc1C=NNC(=S)Nc1ccc(Cl)cc1Cl | 3.0 | · | · | 9 | 0 | · | 13
Nc1nnc(SCC(=O)N2CCN(c3cccc(Cl)c3)CC2)n1-c1ccccc1 | -1.5 | 23616* | 9 | 0 | 7 | -26 | -4
CCOc1cc(C=NNC(=O)c2nn(C)cc2Br)ccc1OCc1ccccc1 | 1.6 | · | · | 13 | 6 | · | -8
N#CC1=C(N)SC2(CCCCC2)SC1c1ccccc1 (stereo not given) | 0.6 | 2499 | 0 | · | · | -12 | 3
COC(=O)c1cc(S(=O)(=O)N2CCOCC2)c(Cl)cc1N1CCOCC1 | 2.1 | 8806 | -4 | 10 | 11 | -32 | -2
CCOc1ccc(CCNC(=O)COC(=O)c2nccnc2N)cc1OCC | 1.4 | 5978 | -1 | 4 | 0 | -17 | -3
CS(=O)(=O)N(Cc1ccc(C(=O)NN=C2CCCC2)cc1)c1ccccc1 | 3.6 | 2446 | -4 | 12 | -2 | -26 | 8
COc1ccccc1N1CCN(C(=O)CCNC(=O)c2ccco2)CC1 | 5.9 | 6642 | · | -1 | -2 | -25 | 5
COCOc1ccc(-c2cc(=O)c3c(OCOC)cc(OCOC)cc3o2)cc1 | 0.9 | 4285 | -4 | · | · | · | -5
O=C(NCC1CCCO1)C1CCC(=O)N1CCc1ccccc1 (stereo not given) | 18 | 4032 | 2 | 2 | 1 | -20 | 16
CCOc1ccccc1NC(=O)COn1nnc2ccc(Cl)cc21 | 3.3 | ? | 0 | 6 | 11 | -48 | -1
COC(=O)C1=C(c2ccccc2OCc2ccccc2)CC2CCC1N2C(=O)NCc1cccc(C(F)(F)F)c1 (stereo not given) | -12 | · | · | 14 | -2 | · | 11
CC(C)(C)N1NC2(CCCCC2)NC1=S | 2.6 | 4450 | 15 | 0 | 6 | -18 | 19
Cc1cccc(/C(N)=N/OC(=O)c2cccnc2)c1 | 2.4 | 2414 | -3 | 5 | -8 | -51 | -2
CCCC1C(C#N)=C(N)Oc2c1c(=O)oc1ccccc21 (stereo not given) | 6.1 | 2942 | -1 | 0 | -3 | -23 | 2

Whole records, looked up by structure:
CC(=O)N(Cc1cc2c(C)cc(C)cc2[nH]c1=O)C1CCCCC1 across the screens: RN4220 kill: 5.9; Autofluor counter: 2433; BJeLR viability: -4; Mtb hypoxia rep: 11; Mtb hypoxia rep growth: 3; PrP 5UTR inh: 0; Sa ugtP lethal: 1
Cc1ccc(S(=O)(=O)n2c(CN3CCCC(C)C3)nc3ccccc32)cc1 (stereo not given) across the screens: RN4220 kill: -0.4; Autofluor counter: 8577; BJeLR viability: -7; Mtb hypoxia rep: 8; Mtb hypoxia rep growth: 5; PrP 5UTR inh: -4; Sa ugtP lethal: 23

(further entries)
SMILES | RN4220 kill | Autofluor counter | BJeLR viability | Mtb hypoxia rep | Mtb hypoxia rep growth | PrP 5UTR inh | Sa ugtP lethal
Cc1ccc(NC(=O)N(CCCN2CCOCC2)Cc2cccs2)cc1C | -0.6 | 4246 | -4 | 6 | 4 | 4 | 7
C/C(CC(=O)Nc1cccc(C(F)(F)F)c1)=N\NC(=O)Cc1ccccc1 | · | 5331 | 2 | · | · | -24 | ·
O=C(COc1ccc(Cl)cc1)N1CCN(C(=O)c2cccc(F)c2)CC1 | 0.2 | 4791 | 4 | · | · | -21 | 9
COC(=O)C1(CCSC)NC(c2ccccc2F)C2C(=O)N(c3ccc4c(c3)OCCO4)C(=O)C21 (stereo not given) | 0.0 | 3856 | -14 | -7 | -4 | -1 | -14
C/C(=N\NC(=O)c1c(C)nc2ccccn12)c1ccc(C(C)(C)C)cc1 | · | 3915 | 2 | · | · | -22 | ·
O=C(CNC(=O)C1CCCCC1)NNC(=O)c1ccc(Cl)cc1Cl | -1.2 | 5264 | 3 | 11 | 9 | -11 | 7
O=S(=O)(Nc1ccccc1N1CCOCC1)c1c(F)cc(F)cc1Br | 12 | 2843 | · | 8 | -3 | -4 | -2
CCOC(=O)N(NC(=O)C(O)(C(C)C)C(C)C)c1ccccc1 | 3.4 | 2528 | -6 | 16 | 7 | -38 | 4
COc1ccc(Cl)cc1NCCC(O)c1ccc(F)cc1 (stereo not given) | 8.3 | 4258 | 2 | 20 | -1 | -12 | 8
Cc1cc(C(=O)Nc2ccccc2)oc1C | -15 | 3306 | -3 | 11 | 8 | -85 | -7
Nc1nonc1-n1nnc(C(=O)NN=Cc2cccnc2)c1CSC1=NCCS1 | -0.7 | · | · | 7 | 0 | · | 6
N/C(=N\OS(=O)(=O)c1ccccc1)c1ccncc1 | · | 3309 | -3 | · | · | -2 | ·
O=c1[nH]ncc(NN=Cc2cccnc2)c1Cl | -0.3 | · | · | -8 | 6 | · | 8
CCCN(CCO)Cc1ccc(Cl)c(Cl)c1 | 5.0 | 7961 | 11 | 5 | 8 | -15 | 8
COc1ccc(CCNC(=O)c2cc(-c3cc(Cl)ccc3O)n[nH]2)cc1OC | 2.2 | 4488 | 1 | 16 | 8 | -3 | 1
Cc1cc(C)c2c(N)c(C(=O)c3ccc(Cl)cc3Cl)sc2n1 | 1.5 | 2390 | -4 | 1 | 11 | 7 | -32
CC(C)(C)CN1CCN(Cc2cccnc2)CC1CCO (stereo not given) | -0.9 | 3901 | 9 | 15 | 2 | -29 | 7
O=C(NCc1ccco1)c1ccc([N+](=O)[O-])o1 | · | 4178 | -1 | · | · | -45 | ·
COc1cc(C=NNC(=S)NN=Cc2cc(OC)c(OC)c(OC)c2)cc(OC)c1OC | 0.8 | · | · | 5 | 3 | · | 3
CCOC(=O)C1CCN(S(=O)(=O)c2ccc3c(c2)CCCN3C(C)=O)CC1 | -1.0 | 4647 | 2 | · | · | -15 | 1

Compounds listed so far containing an aryl methoxy group (7):
SMILES | RN4220 kill | Autofluor counter | BJeLR viability | Mtb hypoxia rep | Mtb hypoxia rep growth | PrP 5UTR inh | Sa ugtP lethal
COc1ccccc1NC(=O)CSc1n[nH]c(-c2cccnc2)n1 | 1.2 | 5174 | 0 | 8 | 7 | 2 | -3
COc1ccc(NC(=O)CSc2nnc(Cn3cnc([N+](=O)[O-])n3)n2C)cc1 | 0.0 | 1961 | -1 | 12 | 2 | -11 | 10
COc1ccc2[nH]c3c(N4CC(C)OC(C)C4)ncnc3c2c1 (stereo not given) | -0.2 | · | -4 | -4 | 9 | · | -12
COc1ccccc1N1CCN(C(=O)CCNC(=O)c2ccco2)CC1 | 5.9 | 6642 | · | -1 | -2 | -25 | 5
COc1ccc(Cl)cc1NCCC(O)c1ccc(F)cc1 (stereo not given) | 8.3 | 4258 | 2 | 20 | -1 | -12 | 8
COc1ccc(CCNC(=O)c2cc(-c3cc(Cl)ccc3O)n[nH]2)cc1OC | 2.2 | 4488 | 1 | 16 | 8 | -3 | 1
COc1cc(C=NNC(=S)NN=Cc2cc(OC)c(OC)c(OC)c2)cc(OC)c1OC | 0.8 | · | · | 5 | 3 | · | 3

Continuation.
SMILES | RN4220 kill | Autofluor counter | BJeLR viability | Mtb hypoxia rep | Mtb hypoxia rep growth | PrP 5UTR inh | Sa ugtP lethal
O=[N+]([O-])c1ccc(N2CCN(S(=O)(=O)c3ccccc3)CC2)cc1 | -4.7 | 3041 | 4 | -7 | 10 | -6 | 4
Cc1noc(N)c1C(=O)Nc1ccccc1F | 4.9 | 3607 | 2 | 9 | 0 | -16 | -4
CN(C)CCNC(=O)Cn1ccc2cc(S(=O)(=O)N3CCCCCC3)ccc21 | -1.5 | 5590 | -2 | 3 | -4 | -16 | 9
O=S(c1ccccc1)c1ccccc1 | 3.9 | 2830 | · | 11 | 5 | 3 | 15
COc1ccc(NC(=O)C(=O)NCC(c2ccco2)N2CCc3ccccc32)cc1 (stereo not given) | 1.7 | 5682 | 26 | 1 | 10 | 53* | -2
N/C(=N\OC(=O)c1ccc2c(c1)OCO2)c1ccc([N+](=O)[O-])cc1 | · | 2671 | -6 | · | · | -76 | ·
CCC(C)(C)C1CCC2(CC1)NC(=O)N(CC(=O)Nc1cc(C(F)(F)F)ccc1N1CCOCC1)C2=O (stereo not given) | -3.3 | 5972 | -10 | -2 | -3 | 2 | -17
CCC(=O)NCc1c(Cl)cccc1-n1cccc1 | 1.9 | 19934* | -12 | 5 | 9 | -8 | 0
CC(=NNC(=O)CSc1nnc(C)s1)c1ccc(O)cc1 | -0.6 | · | · | 12 | 2 | · | 3
Oc1ccc(Br)cc1-c1cc(-c2ccccc2)n[nH]1 | 3.3 | 3292 | 0 | 5 | 11 | -10 | 73
COc1ccc(F)cc1C(=O)C1CCCN(C(=O)CCc2ccccn2)C1 (stereo not given) | 4.7 | 4638 | 1 | 5 | 12 | -6 | -4
O/N=C/c1c[nH]c2ccccc12 | · | 2393 | -4 | · | · | -23 | ·
O=c1cc(-c2ccccc2)cc(-c2ccccc2)n1O | 28 | 2986 | 10 | 14 | 4 | -8 | -3
Cc1ccc(-n2nc(C)c3c2OC(N)=C(C#N)C3c2ccncc2)cc1 (stereo not given) | 5.0 | 3165 | -3 | 10 | 3 | -8 | -4
C/C(N)=C(/C#N)C(=O)COC(=O)c1cc(-c2cccc(Br)c2)nc2ccccc12 | 21 | 2520 | -1 | 4 | 1 | 2 | 1
CN1C(=O)N(CC(=O)N2CCN(c3ncccn3)CC2)C(=O)C12CCCCC2 | 0.4 | 5798 | · | -6 | 7 | 2 | 2
O=C(CCN1c2ccccc2Sc2ccccc21)Oc1ccccc1 | · | 2150 | 12 | · | · | -18 | ·
C/C(C=NNC(=O)Cc1cccs1)=C\c1ccccc1 | 9.1 | · | · | -2 | 7 | · | -7
Cc1ccc(Nc2nc3c(s2)CCC3)c(C)c1 | 4.8 | 10315 | 4 | -4 | 5 | -23 | -1
CCOC(=O)C1C2COc3cc(OC)ccc3C2N2C(=O)N(c3ccc(C)cc3)C(=O)[C@@]12C (stereo not given in full) | 3.9 | · | · | -3 | 8 | · | -13

High-throughput results deposited in PubChem BioAssay by several laboratories.
